# Screening results: PubChem BioAssay, National Center for Advancing Translational Sciences (NCATS)
# HPGD inh = inhibitors of human 15-hydroxyprostaglandin dehydrogenase (HPGD); hit rate 4.3% among 150,000; Potency, µM, without a hit: top-dose activity change, negative = inhibition, usual class: inhibitors; purified HPGD, NADH fluorescence kinetic, PGE2 substrate; active = well fitted inhibition curve with a large enough effect (not every such curve was filed as active); inconclusive = small, poorly fitted or top-dose-only effect, or another doubt; inactive = no such curve, though single readings can be large or run the other way;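 also: top concentration of the series not given in the record; plate controls included wells without enzyme; inactives centre near -10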
# Target sequence (P15428 whole entry, looked up): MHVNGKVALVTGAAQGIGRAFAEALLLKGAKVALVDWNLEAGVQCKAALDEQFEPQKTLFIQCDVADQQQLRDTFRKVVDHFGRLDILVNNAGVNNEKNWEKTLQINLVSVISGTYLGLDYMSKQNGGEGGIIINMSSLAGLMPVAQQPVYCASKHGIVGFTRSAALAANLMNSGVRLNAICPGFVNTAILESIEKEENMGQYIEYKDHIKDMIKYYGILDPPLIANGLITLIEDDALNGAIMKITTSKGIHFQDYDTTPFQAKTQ
#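 20 nM HPGD preincubated 15 min at room temperature with compound in 50 mM Tris-HCl pH 8, 0.01% Tween 20. Started with 1 mM NAD+ and 30 uM prostaglandin E2; NADH fluorescence (360/450 nm) read 5 times over 30-s intervals, last minus first.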
# * = called active by the depositor; ? = inconclusive; & = joins results of further samples. % is scaled to controls: 0 for no effect and ±100 for the full control effect; potency is read from the fitted curve at half-maximal effect. Some of the compounds tested (hit frequency here may not be typical).
structure | HPGD inh
COc1ccc(-c2cc(=O)c3c(O)cc(O)c(-c4cc(-c5cc(=O)c6c(O)cc(O)cc6o5)ccc4OC)c3o2)cc1 | -19.0%
N#Cc1c(NC(=O)CSc2nnnn2C2CCCC2)sc2c1CCCC2 | -21.0%
O=C(O)C1CC=CCC1C(=O)Nc1ccc(S(=O)(=O)N2CCCc3ccccc32)cc1 (stereo unspecified) | -14.7%
O=C(Nc1ccc(Cl)c(Cl)c1)c1ccncc1 | -11.9%
O=C(CC1(O)C(=O)N(Cc2ccccc2)c2ccccc21)c1ccncc1 (stereo unspecified) | -20.1%
O=c1c2c([nH]c3ccccc13)CCCC2 | -26.5%
O=C1c2cccc(OCc3ccc(F)cc3)c2CCN1Cc1ccccc1 | -15.2%
CCCCc1noc2c1/C(=N\O)CC(c1ccccc1)C2 (stereo unspecified) | -21.2%
CC(C)CNC(=O)c1cccc(NC(=O)CSc2ccc(Cl)cc2)c1 | -1.4%
O=C(O)C1CCCN1S(=O)(=O)c1cccs1 (stereo unspecified) | -10.0%
Cc1ccc(NC(=O)c2cccc(OCc3c(C)noc3C)c2)c(C)c1 | -7.1%
Cc1sc(NC(=O)CN2CCOCC2)nc1-c1ccc2c(c1)CCN2S(=O)(=O)c1ccccc1 | -7.1%
COc1cccc(CN(C)C(=O)c2ccc3nccnc3c2)c1 | 28.2µM*
N#Cc1nc(Cc2cccc3ccccc23)oc1NCCCN1CCOCC1 | -6.3%
Clc1cccc(-c2nn3c(-c4ccncc4)nnc3s2)c1 | -7.3%
Cc1ccc(S(=O)(=O)CC(c2ccccc2)N2CCOCC2)cc1 (stereo unspecified) | -6.3%
CC(=O)N1c2ccccc2C(C)(c2ccccc2)CC1(C)C (stereo unspecified) | -15.7%
O=C(COc1ccccc1)Nc1nnc(C23CC4CC(CC(C4)C2)C3)s1 | -13.5%
COc1ccc(Cl)cc1Nc1nc(-c2sc(NC(=O)c3ccco3)nc2C)cs1 | ?
O=C(OCc1ccc(F)cc1)c1ccc2c(c1)-c1ccccc1C2=O | -11.0%
CC12CCC(C(=O)N(c3cccc(Cl)c3)C1=O)C2(C)C (stereo unspecified) | 3.3%
CC(C)(C)OC(=O)Cn1c(=O)cnc2ccccc21 | -14.8%
Cc1ccc(NC(=O)N(Cc2cc3cc(C)cc(C)c3[nH]c2=O)CC2COCCO2)cc1 (stereo unspecified) | -6.5%
CCN(c1ccccc1)S(=O)(=O)c1ccc(Cl)c(NC(=O)CSc2nncn2C)c1 | -6.4%
CCc1ccc(N2C(=O)c3sc4nnc(C)c(=O)n4c3C2=O)cc1 | -19.6%
CCOc1ccc(NC(=O)Nc2cc(-c3ccccc3)sc2C(=O)OC)cc1 | -20.6%
CCOc1cc(/C=N/n2cnnc2)ccc1OCC(=O)Nc1ccccc1OC | ?
CCc1ccc(NC(=O)CSc2nc3ccccc3c(=O)n2CCN2CCOCC2)cc1 | -6.7%
CC(=O)Oc1ccc(C)cc1-n1nc2ccccc2n1 | -22.0%
Nc1ccccc1Nc1ccncc1[N+](=O)[O-] | -22.0%
Cc1cccc(NS(=O)(=O)c2cc(OCC(N)=O)c(C)cc2Cl)c1 | -6.5%
O=C(NC1CCCCC1)NC1CC2CCC(C1)N2C(=O)NC1CCCCC1 (stereo unspecified) | -6.7%
CC1CCCN(CCCCOc2cccc(Br)c2)C1 (stereo unspecified) | -0.7%
O=c1c2c3nc4ccccc4nc3n(/N=C/c3ccco3)c2ncn1CCC1=CCCCC1 | -15.7%
COc1ccc(C2=NOC(C(=O)NCCN3CCOCC3)C2)cc1 (stereo unspecified) | -18.7%
CCN(Cc1ccncc1)C(=O)C1CCN(S(=O)(=O)c2cccs2)CC1 | -9.8%
COc1ccccc1Nc1nc2c(C)cccc2cc1C#N | -13.4%
O=C(Nc1cc(C(F)(F)F)ccc1N1CCOCC1)c1cccnc1 | 4.7%
Cc1cccc(C)c1NC(=O)CSCC(=O)O | -6.8%
CCCCOC(=O)C1CCCC(C)N1 (stereo unspecified) | -8.1%
O=C(Nc1ccc(C(F)(F)F)cc1)c1ccc2nc[nH]c2c1 | -15.2%
O=C1c2ccccc2C(O)N1CCN1CCOCC1 (stereo unspecified) | -7.1%
CC(C)Nc1nc(NC(C)C)nc(OCCOC(=O)Nc2ccccc2)n1 | -6.0%
Oc1cccc2c(NC(=S)Nc3ccc(OC(F)F)cc3)cccc12 | ?
Cc1ccc(C(C(=O)NC2CCCCC2)N(C(=O)Cc2c[nH]c3ccccc23)c2ccccc2C)o1 (stereo unspecified) | -2.3%
O=C(NCc1ccco1)c1ccc2c(c1)C(=O)c1ccccc1-2 | 15.8µM*
O=C(CCCOc1ccc(Cl)cc1Cl)N/N=C/c1ccccc1 | ?
CCOc1ccc2cc(C#N)c(SCC(=O)OC)nc2c1 | -15.0%
O=C(Nc1ccccc1F)c1ccccc1-c1ccccc1 | -4.5%
CC1(C)CC(=O)NC=C(c2ccccc2)C1 | -19.7%

# Following part.
structure | HPGD inh
Cc1cc(NC(=O)Nc2ccc3c(ccn3C)c2)sn1 | -24.0%&-14.3%
COc1ccc(C(c2nnnn2CC2CCCO2)N2CCN(c3ccc(F)cc3)CC2)cc1 (stereo unspecified) | -13.3%
CCCCNC(=O)COC(=O)c1c2c(nc3ccccc13)/C(=C/c1cccs1)CC2 | ?
N#Cc1nc(Cc2ccccc2)oc1NCc1cccnc1 | -17.8%
O=S(N1CCCCCC1)C12CC3CC(CC(C3)C1)C2 (stereo unspecified) | -15.8%
Cn1cccc1CC(=O)N/N=C/C=C/c1ccccc1 | -5.7%
Clc1ccccc1-c1nc2nc3ccccc3nc2n1-c1ccc2c(c1)OCO2 | -16.4%
COc1ccc(OC)c(C(C(=O)NCc2ccco2)N(C(=O)Cn2nnc3ccccc32)C(C)C)c1 (stereo unspecified) | -12.1%
S=C(NCCN1CCOCC1)Nc1ccccc1Cl | -12.2%
C(=N\n1cnnc1)/c1cccs1 | -10.8%
CCCN(CC1CC1)c1nc(N)c(C#N)c(CC#N)c1C#N | -16.0%
O=C(Nc1nc2ccccc2s1)C1CC(=O)N(c2ccccc2)C1 (stereo unspecified) | -10.0%
CC(C)CNC(=O)CCCc1ccccc1 | 14.1µM*
CN(C)C[C@@H](O)c1ccc(Cl)c2ccccc12 | -8.7%
Cc1ccc(S(=O)(=O)N2CCOCC2)cc1NC(=O)COC(=O)CNC(=O)c1ccc(Oc2ccccc2)cc1 | -10.9%
COc1cccc(NC(=O)Cc2cccs2)c1 | ?
O=C(Nc1cccc(NC(=O)C2CC3CCCC(C2)C3=O)n1)C1CC2CCCC(C1)C2=O (stereo unspecified) | 6.8%
CCOC(=O)c1sc2ncn(/N=C/c3ccccn3)c(=O)c2c1C | -14.6%
O=C(c1ccncc1)N1CCC[C@@]2(CCN(C(c3ccccc3)c3ccccc3)C2)C1 | -3.3%
COc1ccc(C2(C)NC(=O)N(Cc3cc(Cl)cc4c3OCOC4)C2=O)cc1OC (stereo unspecified) | -11.8%
COc1cc(NC(=O)C/C(C)=N/NC(=O)Cc2ccccc2)c(OC)cc1Cl | -2.1%
O=C(c1cccs1)c1no[n+]([O-])c1C(=O)c1cccs1 | 12.6µM*
Cn1c(C(=O)N2CCN(c3cccc(C(F)(F)F)c3)CC2)cc2sccc21 | -8.1%
Cc1cccc(C2Nc3ccccc3C(=O)N2c2ccccc2)n1 (stereo unspecified) | ?
COC(=O)c1ccc(CN(Cc2ccc(C(=O)OC)o2)C(C)(C)C)o1 | 1.1%
CC(C)Cn1nnnc1S(=O)(=O)CC#N | -9.2%
O=c1[nH]nc(Cc2ccc(-c3ccccc3Cl)o2)c2ccccc12 | -12.4%
COc1ccc(O[C@H]2C=C[C@@H](c3ccccc3)O[C@@H]2CO/N=C(\C)CCC(=O)OC[C@H]2O[C@H](c3ccccc3)C=C[C@@H]2Oc2ccc(OC)cc2)cc1 | -10.3%
COc1ccc(NC(=O)C2CCN(S(=O)(=O)c3cccnc3)CC2)cc1Cl | -6.8%
COc1coc(C(O)C[N+](=O)[O-])cc1=O (stereo unspecified) | -14.5%
O=C(OC1CCc2ccccc2C1=O)c1ccccc1O (stereo unspecified) | -19.2%
CCn1c(COc2ccccc2C(N)=O)nc2ccccc21 | -10.6%
Cc1cc(C)c2[nH]c(=O)c(C(c3nnnn3Cc3ccc4c(c3)OCO4)N3CCCC3)cc2c1 (stereo unspecified) | -5.2%
COc1ccc(OC)c(NC(=O)C2CC(=O)N(c3ccc(Br)cc3)C2)c1 (stereo unspecified) | -4.4%
NS(=O)(=O)c1ccc(NC(=O)C(Sc2ccccc2)c2ccccc2)cc1 (stereo unspecified) | -1.5%
Cc1cc(C)n2nc(-c3sccc3-n3cccc3)cc2n1 | -16.2%
CC(=O)N1CCCc2ccccc21 | 0.1%
CC(O)CNc1nc2ccccc2n1CC(=O)NCCc1ccc(Cl)cc1 (stereo unspecified) | -2.0%
COCCn1c(=O)c(-c2cc(F)cc(F)c2)nc2cnc(Oc3ccc(OC)cc3)nc21 | -24.3%
Cc1[nH]nc2c1C(c1ccc3c(c1)OCO3)C(C#N)=C(N)O2 (stereo unspecified) | -17.6%
CNC(=O)c1ccccc1NC(=O)c1cccc(S(=O)(=O)N2CCC(C)CC2)c1 | -15.2%
CCOC(=O)c1sc(/N=C/c2ccc(O)cc2O)cc1C | -14.9%
CC(C)(C)C(=O)Cn1c[n+](N)cn1 | 1.9%
Cc1cccc(C(=O)NCC2CCCO2)c1 (stereo unspecified) | ?
CCc1ccc(C(CC(=O)c2ccc(Cl)cc2)C(=O)O)cc1 (stereo unspecified) | 2.8%
COc1ccc(C(=O)Nc2nc(-c3ccc([N+](=O)[O-])cc3)c(-c3ccc(OC)cc3)s2)cc1 | -6.8%
Cc1ccc(C)c(N2CN(Cc3cccnc3)CNC2=S)c1 | -4.8%
CSc1nc(-c2ccccc2)nc2c1COC(C)(C)C2 | -8.6%
CCCCCCOc1ccc(C(=O)O)cc1C#N | 20µM*
O=C(Nc1nnc(-c2ccc3c(c2)CCCC3)o1)c1ccccc1Cl | -29.7%

# Later entries:
structure | HPGD inh
C=CCN1C(=O)/C(=C\C=C2\N(C)c3ccccc3C2(C)C)SC1=S | -14.2%
CCn1c(SCC(=O)OC2CCCCC2)nc2ccccc2c1=O | -17.3%
CS(=O)(=O)CCC(C(=O)OCc1ccc(Br)cc1)N1C(=O)c2ccccc2C1=O (stereo unspecified) | -6.4%
CCOc1ccccc1NC(=O)N1CCC(c2nc3ccccc3[nH]2)CC1 | -25.3%
COc1cc(CN2CC(C)CC(C)C2)cc([N+](=O)[O-])c1O (stereo unspecified) | -17.1%
O=c1c2c(nc3n1CCCCC3)-c1ccccc1CC21CCCCC1 | -8.2%
Cc1ccc(S(=O)(=O)N2CCC(C(=O)Nc3ccc4c(c3)COC4=O)CC2)cc1 | -14.4%
Cc1ccc(S(=O)(=O)N(C)CC(=O)O/N=C(\N)c2ccccn2)cc1 | 1.1%
CC(=O)N1N=C(c2ccc(C)o2)CC1c1ccc(F)cc1 (stereo unspecified) | -14.6%
c1cncc(-c2nc(N3CCOCC3)c3ccccc3n2)c1 | -30.0%
CC(Cc1ccccc1)C(=O)N(C)Cc1cccnc1 (stereo unspecified) | -9.8%
COc1cc(NC(=O)CSc2nc3cc(C)ccc3cc2C)c(C(=O)O)cc1OC | -18.0%
CC(C)(C)NC(=O)CN(C(=O)CNC(=O)c1cccs1)c1ccc2c(c1)OCCO2 | -5.1%
CN(C)c1nn(C(=O)Nc2ccc(Cl)cc2Cl)cc1-c1ccccc1 | ?
CC(C)C=O | -4.6%
CCn1c(SCC(=O)N2CCc3ccccc32)nnc1-c1ccncc1 | -11.5%
Cc1cc(Oc2ccc(=O)n(C)n2)nc(Oc2ccc(=O)n(C)n2)n1 | -2.5%
CC(C)c1nnc(SCC(=O)N2CCc3ccccc32)n1C | -4.2%
Cc1ccccc1OCCC(=O)Nc1c(C)n(C)n(-c2ccccc2)c1=O | -5.0%
COc1ccc(/C=C2\CN(Cc3ccccc3)C/C(=C\c3ccc(OC)cc3OC)C2=O)c(OC)c1 | -13.6%
Cc1nn2c(-c3ccc(Cl)cc3Cl)nnc2s1 | ?
CCn1cc(S(=O)(=O)CC(=O)Nc2ccc(OC)cc2)c2ccccc21 | 7.7%
C=CCN1C(=O)C2C(C(=O)NCc3ccccc3)C3C=CC2(O3)C1C(=O)NC(C)(C)C (stereo unspecified) | -10.6%
CS(=O)(=O)N1CCCC(C(=O)NCc2ccccc2Cl)C1 (stereo unspecified) | -7.0%
COC(=O)c1ccccc1NC(=O)c1ccc(COc2ccccc2)o1 | ?

# Structures listed so far with bromine, in the order listed:
structure | HPGD inh
CC1CCCN(CCCCOc2cccc(Br)c2)C1 (stereo unspecified) | -0.7%
COc1ccc(OC)c(NC(=O)C2CC(=O)N(c3ccc(Br)cc3)C2)c1 (stereo unspecified) | -4.4%
CS(=O)(=O)CCC(C(=O)OCc1ccc(Br)cc1)N1C(=O)c2ccccc2C1=O (stereo unspecified) | -6.4%

# (more compounds)
structure | HPGD inh
O=C(c1cccs1)N1CCCC(c2nc(-c3ccc(F)cc3)no2)C1 (stereo unspecified) | -1.3%
CCOC(=O)C1CCCCN1C(=O)CCc1c(C)nc2ncnn2c1C (stereo unspecified) | -13.3%
Cc1c(N=C2SCC(=O)N2/N=C/c2ccccc2)c(=O)n(-c2ccccc2)n1C | -13.8%
OC(CN1C2=NCCN2c2ccccc21)c1ccc(Br)cc1 (stereo unspecified) | -1.9%
